Compound activity: PubChem, Broad Institute
Vaccinia stage: blocks a specific stage of Vaccinia orthopoxvirus infection. activity change (mCherry), % (test concentration not listed). 89,000 compounds, 0.01% hits. Vaccinia-infected cells, mCherry/Venus stage reporter fluorescence; active compounds read low; some inactives read as strong as hits;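 active = mCherry past -33% and 40 or more points under the early reporter, replicates agreeing; inconclusive = past -33% without that gap or agreement; tested in A549 cells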;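 also: scaled between vehicle wells and reference inhibitor wells; 23 nL library stock went into each well; one replicate is shown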
Vaccinia stage Venus: also measured in Vaccinia stage; calls as there; activity change (Venus), %; measured here: Venus reporter, other viral stage;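 negative = less Venus signal; first of two replicates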
Starred values were filed as active, the others as inactive; u = inconclusive; x = not tested or not shown; & = joins results of further samples.

| mol | Vaccinia stage | Vaccinia stage Venus |
| --- | --- | --- |
| C[C@@H]1CN([C@H](C)CO)C(=O)Cc2cc(NC(=O)c3ccncc3)ccc2O[C@@H]1CN(C)Cc1ccc(C(F)(F)F)cc1 | -19.9 | -18.5 |
| C[C@H](CO)N1C[C@H](C)[C@H](CN(C)C(=O)c2ccc(F)cc2)Oc2ncc(-c3ccncc3)cc2C1=O | 29.9 | 9.7 |
| CO[C@H]1CN(C)C(=O)c2ccc(NC(C)=O)cc2OC[C@@H](C)N(C(=O)Cc2cccnc2)C[C@@H]1C | 7.4 | 0.8 |
| O=C(C[C@@H]1CC[C@@H](NC(=O)Cc2ccccn2)[C@H](CO)O1)NCCCN1CCOCC1 | -4.5 | 0.1 |
| CC(C)NC(=O)N(C)C[C@H]1Oc2ncc(C3=CCCCC3)cc2C(=O)N([C@H](C)CO)C[C@@H]1C | 29.9 | 8.7 |
| Cc1cc(C(=O)Nc2cccc3c2O[C@@H](CN(C)C(=O)Nc2ccc(F)cc2)[C@H](C)CN([C@@H](C)CO)C3=O)n(C)n1 | 3.1 | 1.2 |
| C[C@@H]1CN([C@H](C)CO)C(=O)c2cccc(NS(=O)(=O)c3cccs3)c2O[C@@H]1CN(C)C(=O)Nc1ccc(C(F)(F)F)cc1 | -26.5 | -27.0 |
| O=C(C[C@@H]1CC[C@H]2[C@@H](COC[C@@H](O)CN2Cc2ccc(F)cc2)O1)NCCc1ccccc1 | -14.5 | -13.0 |
| COc1ccc(C#Cc2cnc3c(c2)C(=O)N([C@H](C)CO)C[C@@H](C)[C@@H](CN(C)C(=O)CN(C)C)O3)cc1 | -11.8 | -12.4 |
| O=C(Nc1ccc(Cl)cc1)N[C@@H]1CC[C@H](CCn2cc(-c3ccccc3F)nn2)O[C@@H]1CO | -28.4 | -27.2 |
| C[C@H]1CCCCO[C@@H](CN(C)CC2CCCCC2)[C@@H](C)CN([C@@H](C)CO)C(=O)c2cc(NS(=O)(=O)c3cn(C)cn3)ccc2O1 | 19.6 | 14.1 |
| N#C[C@H]1N[C@H](CO)[C@H]1c1ccc(C2=CCCC2)cc1 | 8.3 | 6.8 |
| CCC(=O)N(C)C[C@H]1Oc2cc(-c3cccc(C#N)c3)ccc2S(=O)(=O)N([C@H](C)CO)C[C@@H]1C | 24.5 | 15.7 |
| O=C(C[C@@H]1C[C@@H]2c3cc(NC(=O)C4CCOCC4)ccc3O[C@@H]2[C@H](CO)O1)NCCc1ccccc1 | 36.1 | 23.9 |
| C[C@@H]1CN([C@@H](C)CO)S(=O)(=O)c2ccc(-c3ccccc3F)cc2O[C@@H]1CN(C)C | -12.4 | -15.4 |
| CCS(=O)(=O)Nc1ccc2c(c1)C(=O)N(C)C[C@H](OC)[C@H](C)CN(C(=O)NC(C)C)[C@H](C)CO2 | 2.5 | 4.7 |
| CO[C@H]1CN(C)C(=O)c2cc(NC(C)=O)ccc2OC[C@@H](C)N(Cc2ccncc2)C[C@H]1C | 11.6 | 12.8 |
| O=C(C[C@H]1CC[C@@H](NC(=O)Nc2ccccc2F)[C@H](CO)O1)NCc1ccccc1 | 5.9 | 3.8 |
| Cc1noc(C)c1S(=O)(=O)N(C)C[C@@H]1OCCCC[C@H](C)Oc2ccc(NS(=O)(=O)c3ccccc3)cc2C(=O)N([C@H](C)CO)C[C@H]1C | -23.3 | -17.4 |
| C[C@@H]1CN([C@H](C)CO)C(=O)CCCn2nncc2CO[C@@H]1CN(C)C(=O)c1ccccc1 | -0.4 | 3.2 |
| C[C@@H]1CN([C@@H](C)CO)C(=O)c2cc(NS(=O)(=O)c3ccc(Cl)cc3)ccc2O[C@H]1CN(C)Cc1ccc(Oc2ccccc2)cc1 | u | x |
| C[C@H]1CN([C@@H](C)CO)C(=O)Cc2cc(NC(=O)C3CC3)ccc2O[C@@H]1CN(C)S(C)(=O)=O | 11.7 | 4.9 |
| CCCC#Cc1ccc([C@@H]2[C@H](CO)N3CCCCN(C(=O)c4ccc5c(c4)OCO5)C[C@@H]23)cc1 | u | x |
| C[C@H](CO)N1C[C@H](C)[C@@H](CN(C)Cc2cccnc2)Oc2ncc(C3=CCCCC3)cc2C1=O | 24.2 | -3.5 |
| CN(C)C(=O)[C@H]1[C@H](CO)[C@H]2Cn3c(ccc(-c4cccnc4)c3=O)[C@@H]1N2C(=O)NC1CCCC1 | 14.0 | 11.7 |

(continued)
| mol | Vaccinia stage | Vaccinia stage Venus |
| --- | --- | --- |
| CO[C@H]1CN(C)C(=O)c2cc(NC(=O)c3ccccc3F)ccc2OC[C@H](C)N(C(=O)c2ccccc2F)C[C@@H]1C | 7.1 | 7.9 |
| Cc1ccc(-c2ccc3c(c2)O[C@@H](CN(C)Cc2cccnc2)[C@@H](C)CN([C@@H](C)CO)S3(=O)=O)cc1 | u | x |
| C=CC[C@@]1(C(=O)NCCCOC)N=C(c2ccc(OCCCO)cc2)O[C@@H]1c1ccccc1 | -0.8 | -3.8 |
| C[C@H](CO)N1C[C@H](C)[C@@H](CN(C)S(=O)(=O)c2ccc(-c3ccccc3)cc2)OCc2cnnn2CCCC1=O | 8.0 | 2.7 |
| COCCNC(=O)C[C@@H]1CC[C@H]2[C@@H](COC[C@H](O)CN2C(=O)c2cc(Cl)cc(Cl)c2)O1 | 1.9 | -2.6 |
| C[C@H](O)C#Cc1ccc([C@H]2[C@H](CO)N3CCCCN(S(=O)(=O)c4ccccc4)C[C@@H]23)cc1 | 6.1 | -2.8 |
| C[C@@H]1CN([C@H](C)CO)C(=O)c2cc(NS(=O)(=O)c3cccs3)ccc2O[C@@H](C)CCCCO[C@H]1CN(C)C(=O)Nc1ccc(F)cc1 | -30.7 | -20.5 |
| C[C@H](CO)N1C[C@H](C)[C@@H](CN(C)C(=O)c2ccncc2)OCCCC[C@H](C)Oc2ccc(NS(=O)(=O)c3ccccc3)cc2C1=O | 19.3 | 9.8 |
| CN(C)C(=O)c1cccc(-c2ccc3n(c2=O)C[C@@H]2[C@@H](CO)[C@H](C(=O)NCC(F)(F)F)[C@H]3N2C)c1 | -2.7 | 6.6 |
| O=C(NCC[C@H]1CC[C@@H](NS(=O)(=O)c2cccc(F)c2)[C@H](CO)O1)c1cnccn1 | 2.4 | 17.0 |
| O=C(c1ccccc1)N1CC(=O)N2[C@H](CO)[C@@H](c3ccc(C#Cc4ccccc4)cc3)[C@H]2C1 | -28.5 | -20.4 |
| COc1ccc(C#Cc2ccc3c(c2)O[C@H](CN(C)C(=O)c2ccccn2)[C@@H](C)CN([C@H](C)CO)S3(=O)=O)cc1 | u | x |
| O=C(NCC1CC1)[C@@H]1[C@@H](CO)[C@@H]2Cn3c(ccc(-c4ccncc4)c3=O)[C@H]1N2CC1CC1 | -1.6 | 3.3 |
| C[C@H]1CN([C@@H](C)CO)C(=O)Cc2cc(NC(=O)NC3CCCCC3)ccc2O[C@@H]1CN(C)CC1CCCCC1 | u | x |
| C[C@H]1CN([C@@H](C)CO)C(=O)Cc2cc(NC(=O)Nc3ccccc3)ccc2O[C@@H]1CN(C)Cc1ccc(Oc2ccccc2)cc1 | u | x |
| O=S(=O)(Cc1ccccc1)NCC[C@@H]1CC[C@@H](NS(=O)(=O)c2ccccc2)[C@H](CO)O1 | 10.2 | 2.7 |
| C[C@H]1CN([C@@H](C)CO)S(=O)(=O)c2ccc(-c3ccc(C(=O)N(C)C)cc3)cc2O[C@H]1CN(C)C(=O)Cc1ccccn1 | 5.6 | 5.2 |
| CCCNC(=O)N1[C@H](CNC(=O)c2ccc(F)cc2)[C@@H](c2ccccc2)[C@@H]1CO | -21.6 | -19.7 |
| CN(C)C(=O)C[C@@H]1C[C@H]2c3cc(NC(=O)CC4CC4)ccc3O[C@H]2[C@@H](CO)O1 | -4.6 | 1.0 |
| C[C@@H]1CN([C@H](C)CO)C(=O)Cc2cc(NC(=O)C3CCCCC3)ccc2O[C@H]1CN(C)S(C)(=O)=O | 4.9 | 0.5 |
| C[C@H]1CN([C@@H](C)CO)C(=O)c2cc(NC(=O)NC3CCCCC3)ccc2O[C@@H]1CN(C)Cc1ccc(-c2ccccc2)cc1 | -25.1 | -21.8 |
| C[C@H](CO)N1C[C@H](C)[C@@H](CN(C)C(=O)C2CCOCC2)Oc2cc(-c3ccc(C(=O)N(C)C)cc3)ccc2S1(=O)=O | 12.8 | 10.6 |
| CC(C)NC(=O)N(C)C[C@@H]1OCCCC[C@H](C)Oc2ccc(NS(=O)(=O)c3ccc(Cl)cc3)cc2C(=O)N([C@H](C)CO)C[C@@H]1C | -24.5 | -15.2 |
| Cc1ccccc1S(=O)(=O)N1[C@@H]2CNC[C@H]1C2c1ccc(-c2ccccc2)cc1 (stereo partly specified) | 3.0&19.6 | 2.5&12.9 |
| Cc1ccccc1S(=O)(=O)N1CC(=O)N2[C@@H](CO)[C@@H](c3ccc(C#CCC4CCCC4)cc3)[C@@H]2C1 | 11.4 | 3.2 |

Further results:
| mol | Vaccinia stage | Vaccinia stage Venus |
| --- | --- | --- |
| COc1ccc2c3c(n(C)c2c1)[C@H](CO)N(C(=O)c1cccc(F)c1)CC31CN(CC2CC2)C1 | -17.6 | -14.0 |
| C[C@@H]1CN([C@H](C)CO)C(=O)c2cc(NS(=O)(=O)c3cccs3)ccc2O[C@@H]1CN(C)Cc1ccc(C(=O)O)cc1 | 25.2 | 9.2 |
| C[C@H](O)C#Cc1cnc2c(c1)C(=O)N([C@H](C)CO)C[C@@H](C)[C@@H](CN(C)C(=O)c1ccccc1F)O2 | -3.6 | -2.6 |
| COc1ccc(CN(C)C[C@H]2Oc3ccc(NC(=O)Nc4ccc(C(F)(F)F)cc4)cc3C(=O)N([C@@H](C)CO)C[C@H]2C)cc1 | u | x |
| CO[C@@H]1CN(C)C(=O)c2cc(NC(=O)c3ccccc3F)ccc2OC[C@@H](C)N(C(C)=O)C[C@H]1C | 1.4 | 5.9 |
| C[C@@H]1CN([C@H](C)CO)C(=O)c2cc(NC(=O)Nc3cccc4ccccc34)ccc2O[C@H]1CN(C)Cc1ccc(-c2ccccc2)cc1 | -18.6 | -10.0 |
| O=C(NC1CCC1)[C@H]1[C@H](CO)[C@H]2Cn3c(ccc(-c4ccccc4F)c3=O)[C@H]2N1Cc1cocn1 | 9.4 | 4.2 |
| COc1ccccc1C(=O)N1C[C@@H]2[C@H](c3ccccc31)[C@H](CO)N2C(=O)C1CCCCC1 | -4.3 | 4.4 |
| C[C@@H]1CN([C@@H](C)CO)C(=O)c2cc(NC(=O)Nc3cccc4ccccc34)ccc2O[C@@H](C)CCCCO[C@@H]1CN(C)S(=O)(=O)c1ccc(F)cc1 | 18.2 | 14.5 |
| CCCC#Cc1ccc2c(c1)O[C@@H](CN(C)Cc1cncnc1)[C@@H](C)CN([C@@H](C)CO)S2(=O)=O | 2.9 | -14.0 |
| COc1ccc(NC(=O)N(C)C[C@@H]2Oc3cc(C#CCN(C)C)ccc3S(=O)(=O)N([C@H](C)CO)C[C@@H]2C)cc1 | 2.3 | -3.0 |
| C[C@H](CO)N1C[C@H](C)[C@H](CN(C)Cc2ccc(C(=O)O)cc2)Oc2ccc(NC(=O)NC3CCCCC3)cc2C1=O | 6.8 | 5.4 |
| CC(C)CC#Cc1ccc2c(c1)O[C@H](CN(C)C(=O)c1ccncc1)[C@H](C)CN([C@@H](C)CO)S2(=O)=O | -29.5 | -21.2 |
| CO[C@@H]1CN(C)C(=O)c2cc(NC(=O)c3cccc(F)c3)ccc2OC[C@@H](C)N(C)C[C@H]1C | -2.5 | 2.1 |
| O=C(Nc1cccc(F)c1)N1[C@@H]2CNC[C@H]1C2c1ccc(-c2cccnc2)cc1 (stereo partly specified) | 7.5&-19.5 | 2.7&-17.8 |
| CC(=O)N1CCCCN2[C@H](CO)[C@@H](c3ccc(-c4ccc(C)cc4)cc3)[C@H]2C1 | -2.3 | -8.6 |
| C[C@H]1CN([C@@H](C)CO)S(=O)(=O)c2ccc(C#Cc3ccncc3)cc2O[C@@H]1CN(C)C(=O)c1ccncc1 | u | x |
| C[C@H]1CCCCO[C@H](CN(C)C(=O)Nc2cccc3ccccc23)[C@@H](C)CN([C@@H](C)CO)C(=O)c2cc(NS(=O)(=O)c3ccc(F)cc3)ccc2O1 | 13.0 | 16.5 |
| COc1ccccc1NC(=O)N[C@H]1CC[C@H](CCNC(=O)c2ccc3c(c2)OCO3)O[C@H]1CO | -1.1 | -5.3 |
| COC(=O)C[C@@H]1CC[C@@H]2[C@@H](COc3ccc(NC(=O)c4cccc(OC)c4)cc3C(=O)N2C)O1 | -1.1 | -4.2 |
| CO[C@@H]1CN(C)C(=O)c2cc(NC(=O)C3CCOCC3)ccc2OC[C@H](C)NC[C@@H]1C | -3.6 | 12.1 |
| C[C@@H]1CN([C@H](C)CO)C(=O)c2cc(NS(=O)(=O)c3cccs3)ccc2O[C@@H]1CN(C)C(=O)Nc1ccc(C(F)(F)F)cc1 | 11.4 | 5.2 |
| Cc1ccc(S(=O)(=O)N(C)C[C@@H]2OCCCC[C@@H](C)Oc3ccc(NS(=O)(=O)c4cccs4)cc3C(=O)N([C@@H](C)CO)C[C@H]2C)cc1 | u | x |
| C/C=C/c1ccc2c(c1)O[C@H](CN(C)C(=O)Cc1ccccn1)[C@H](C)CN([C@@H](C)CO)S2(=O)=O | 9.4 | 6.7 |
| O=C(C[C@H]1CC[C@H](NC(=O)CC2CC2)[C@H](CO)O1)NCc1ccc(Cl)cc1 | 10.3 | 10.1 |
| C[C@@H]1CN([C@H](C)CO)C(=O)Cc2cc(NC(=O)Cn3cnnn3)ccc2O[C@@H]1CN(C)S(=O)(=O)c1ccccc1 | 12.0 | 13.6 |
| O=C(NCc1ccc(F)cc1)[C@H]1[C@H](CO)[C@H]2Cn3c(cccc3=O)[C@H]2N1CC1CC1 | 9.5 | 9.3 |
| C[C@@H]1CN([C@H](C)CO)C(=O)c2cccc(NS(=O)(=O)c3ccc(F)cc3)c2O[C@@H]1CN(C)Cc1ccccc1 | 4.3 | -5.2 |

Compound profiles, from the list above:
`C[C@H](CO)N1C[C@H](C)[C@H](CN(C)Cc2ccc(C(=O)O)cc2)Oc2ccc(NC(=O)NC3CCCCC3)cc2C1=O` in the list: Vaccinia stage = 6.8; Vaccinia stage Venus = 5.4
`O=C(C[C@H]1CC[C@H](NC(=O)CC2CC2)[C@H](CO)O1)NCc1ccc(Cl)cc1` in the list: Vaccinia stage = 10.3; Vaccinia stage Venus = 10.1

An excerpt (hit frequency here may not be typical).
